# Assay outcomes from PubChem.
# HPGD inh: inhibitors of human 15-hydroxyprostaglandin dehydrogenase (HPGD); purified HPGD, NADH fluorescence kinetic, PGE2 substrate; Potency, µM, inactives show at the highest dose activity change, negative = inhibition, actives largely listed as inhibitors; actives 4.3% (n = 150,000); AID 894; active = well fitted inhibition curve with a large enough effect (not every such curve was filed as active); inconclusive = small, poorly fitted or top-dose-only effect, or another doubt; inactive = no such curve, though single readings can be large or run the other way;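 note: top concentration of the series not given in the record; plate controls included wells without enzyme; inactives centre near -10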
# Target sequence (P15428 whole entry, looked up): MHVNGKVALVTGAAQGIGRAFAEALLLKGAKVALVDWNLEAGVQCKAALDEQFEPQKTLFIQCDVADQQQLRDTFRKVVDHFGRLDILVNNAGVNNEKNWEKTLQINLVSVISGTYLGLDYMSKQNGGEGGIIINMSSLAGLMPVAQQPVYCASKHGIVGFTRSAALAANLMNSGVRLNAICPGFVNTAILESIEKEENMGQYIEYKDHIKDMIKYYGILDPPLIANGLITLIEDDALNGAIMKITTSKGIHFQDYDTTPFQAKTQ
#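 NADH formation kinetics: reaction with 30 uM PGE2 and 1 mM NAD+ (final), 20 nM enzyme, Tris-HCl pH 8 with Tween 20, after 15 min compound preincubation at room temperature. Fluorescence change, last versus first of five reads.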
# An asterisk follows results filed as active; ? = inconclusive; & = joins results of further samples. % is set by controls: 0 for no effect and ±100 for the full control effect; potency is the fitted concentration of half-maximal effect. An excerpt (hit frequency here may not be typical).
# Start of the listing, in advance (three entries):
HPGD inh,SMILES
?,COc1ccc(-c2nc3oc4cc(OC)ccc4c(=O)c3c(=O)n2Cc2ccco2)cc1
-12.3%,Cc1ccccc1NC(=S)N(CCCN1CCOCC1)Cc1ccccn1
15.8µM*,Cn1cc(Br)c(C(=O)NC2C3CC4CC(C3)CC2C4)n1 (stereo unspecified)

# The list itself, from the first entry:
HPGD inh,SMILES
?,COc1ccc(-c2nc3oc4cc(OC)ccc4c(=O)c3c(=O)n2Cc2ccco2)cc1
-12.3%,Cc1ccccc1NC(=S)N(CCCN1CCOCC1)Cc1ccccn1
15.8µM*,Cn1cc(Br)c(C(=O)NC2C3CC4CC(C3)CC2C4)n1 (stereo unspecified)
-19.6%,O=C(Cc1ccccc1)Nc1ccccc1N1CCN(c2ccccc2)CC1
-12.3%,O=C(O)c1cc2c(s1)CCCC2
-8.1%,Cc1cc(=O)n2[nH]c(SCc3ccccc3)nc2n1
-9.2%,COc1cnc(-c2ccccn2)nc1Oc1cccc(Cl)c1
-5.7%,Cc1ccc(NC(=O)C(C)c2ccc([N+](=O)[O-])cc2)cc1Cl (stereo unspecified)
-5.5%,Cc1sc2nc(CSc3ccccc3)nc(N3CCN(C)CC3)c2c1C
-17.6%,COc1ccc(/C=C/C(=O)C(C(N)=O)=C2SCCS2)cc1
-4.3%,CCOC(=O)CSc1nc2ccccc2n1CC(=O)NC(C)(C)C
-11.8%,N#Cc1ccc(COC(=O)CSc2nnc(C3CCCCC3)n2N)cc1
-10.8%,COc1cc(C2C(C#N)=C(N)Oc3n[nH]c(C)c32)cc2c1OCO2 (stereo unspecified)
-4.3%,CN(C)CCNc1oc(COc2cccc(Cl)c2)nc1C#N
1.9%,CC#CCN1c2ccccc2[C@]23C[C@@H](C(=O)OC)N(S(=O)(=O)c4ccc(C(F)(F)F)cc4)C2=NC(C(=O)OC)=C(C(=O)OC)[C@H]13
2.9%,Cc1cn(C2CC3OCC3O2)c(=O)[nH]c1=O (stereo unspecified)
?,O=C(O)c1cc(-c2ccc(/C=N/Nc3ccc(Cl)cc3)o2)ccc1Cl
-2.8%,Cc1ccc(C(=O)OCC(=O)NCCN2C(=O)CSC2=O)cc1
-4.8%,N#CCc1ccc(NS(=O)(=O)c2cccs2)cc1
-2.8%,CSc1nsc(SC)c1NC(=O)Nc1ccccn1
-25.1%,CCn1c(CNC(=O)COc2ccc(C(C)C)cc2)nnc1SCC(=O)NC1CCCCC1C (stereo unspecified)
?,COc1ccccc1/C=C/C(=O)OC(C)CN1CCOCC1 (stereo unspecified)
-29.4%,Cc1ccc(Cl)cc1NC(=S)NCc1cccn1C
-1.7%,COCCOc1cnn(-c2cc(Oc3ccc(C)cc3)ncn2)c(=O)c1Cl
?,COc1ncc2nc(-c3ccc(Cl)cc3)c(=O)n(C[C@H]3CCCO3)c2n1
-10.4%,NNC(=O)c1ccc(O)cc1O
-1.8%,CC(C)CCNC(=O)Cn1cc2c(n1)CCCCC2
-9.2%,c1cnc(N2CCN(Cc3c[nH]c4ccccc34)CC2)nc1
22.4µM*,COCC(C)NC(=O)c1ccc(N(C)C)cc1 (stereo unspecified)
15.8µM*,CCN(CC)C(=O)c1sc(NC(=O)c2ccc(Br)o2)c(C(=O)OC)c1C
14.1µM*,CCOCCCNC(=S)Nc1ccc(S(N)(=O)=O)cc1
-2.6%,CCCn1nc(C(=O)N2CCc3ccccc3C2)c2ccccc2c1=O
-5.7%,CCOc1ccccc1C(=O)NCCC(=O)O
15.8µM*,COc1cc2c(cc1OC)C(c1ccc(-c3cc(Cl)ccc3Cl)o1)=NCC2
?,N/C(=N\OC(=O)c1cc(-c2ccccc2)nc2ccccc12)c1cccnc1
-17.2%,COc1ccccc1C(=O)NCC(=O)N/N=C/c1cc(Br)ccc1OCc1ccccc1
?,O=C(O)c1ccc(COc2ccccc2/C=C2/NC(=O)N(c3cccc(Cl)c3)C2=O)cc1
-11.1%,O=C(NC1CCCCC1)C(c1cccnc1)N(C(=O)c1csnn1)C1CCCC1 (stereo unspecified)
-12.4%,COc1ccc2c(c1)[C@]1(C)CCC(=O)C[C@H]1CC2
-1.8%&-8.3%&2.8%,CC(C)(Oc1ccc(Cl)cc1)C(=O)O
-3.2%,O=C(c1ccccc1)N1N=C(c2ccccc2)CC1c1ccccc1[N+](=O)[O-] (stereo unspecified)
-0.2%,Cc1ccc(S(=O)(=O)CC(C)N2CCOCC2)c(S(=O)(=O)CC(C)N2CCOCC2)c1 (stereo unspecified)
-11.0%,CCN(CC)S(=O)(=O)c1cccc(C(=O)Nc2cccnc2)c1
-7.4%,Cc1ccc(C)c(N(CC(=O)NN=C2CCN(C)CC2)S(=O)(=O)c2ccccc2)c1
1.4%,NCC(=O)O
-10.8%,CC(C)(C)C(=O)C1C(=O)c2ccccc2C1=O
-3.2%,Oc1ccccc1N1CCN(C(=S)NCCc2ccccc2)CC1
-8.2%,COC(=O)[C@H](C)NC(=O)Nc1cccc(C(F)(F)F)c1
?,COc1ccc(Oc2nc(C(F)(F)F)nc3ccccc23)cc1
?,O=C(C1CC1)N1CCc2cc(S(=O)(=O)N(CCO)Cc3ccccc3)ccc21
4.2%,COc1ccc(N2CC(C(=O)Nc3ccc(F)cc3F)CC2=O)cc1 (stereo unspecified)
-12.1%,CC(=O)n1cc(C2C(=O)CC(C)(C)CC2=O)c2ccccc21
-14.1%,COC(=O)N1[C@H](C)C=C[C@]1(Cc1ccccc1)C(=O)NCc1ccc(N(C)C)cc1
25.1µM*,CCOC(=O)c1sc2nc3n(c(=O)c2c1C)CCC(C)CC3 (stereo unspecified)
-15.6%,COc1ccc(NCC(=O)Nc2ccc(C#N)cc2)cc1Cl
1.2%,CCOC(=O)N1CCC(N2CC34C=CC(O3)C(C(=O)Nc3ccc(OCC)cc3)C4C2=O)CC1 (stereo unspecified)
-8.0%,N=c1sccn1CC(=O)Nc1ccc2c(c1)CCC2
-17.3%,CCNc1nc(NC(C)C)nc(N(C#N)CCOc2ccc(Cl)cc2Cl)n1
-11.3%,O=C(c1ccccc1)c1ccccc1N/C=C/c1nnnn1-c1ccccc1
-9.5%,C1=CC2C3C=CC(C3)C2C1 (stereo unspecified)

# Next part:
HPGD inh,SMILES
-28.8%,CC(=O)Nc1ccc(S(=O)(=O)NCC2CCC(C(=O)NCCC3=CCCCC3)CC2)cc1 (stereo unspecified)
-0.6%,COc1cccc(-n2c(C)nnc2SCC#N)c1
-23.2%,CCCc1cc(C(=O)Cc2ccc(F)cc2)c(O)cc1O
-9.8%,COc1ccccc1N1CCN(CCN(C(=O)c2ccc(F)cc2)c2ccccn2)CC1
-13.8%,CS(=O)(=O)N(Cc1ccccc1)c1ccc(C(=O)Nc2ccc3c(c2)OCO3)cc1
-15.4%,COCCCNC(=O)c1ccc2c(c1)CCN2S(C)(=O)=O
-14.4%,Nc1nc2n(n1)C(c1ccccc1Cl)CC(c1ccc(F)cc1)N2 (stereo unspecified)
0.5%,Cc1cc(=O)n2nc(N3CCCC(C(=O)NCc4ccco4)C3)sc2n1 (stereo unspecified)
-11.3%,CN(c1ccc(C(=O)NCCC2=CCCCC2)cc1)S(C)(=O)=O
-6.0%,O=C(NCc1ccc2c(c1)OCO2)c1nn2cccnc2c1Cl
-5.0%,COc1ccc(/C=N/OCC(=O)N2CC3(C)CC2CC(C)(C)C3)cc1 (stereo unspecified)
-12.6%,CCOC(=O)c1ccc(NS(=O)(=O)c2ccc(SC)cc2)cc1
-14.0%,O=S(=O)(c1cccc(-c2nn3c(-c4ccncc4)nnc3s2)c1)N1CCOCC1
8.4%,COc1ccc(-c2ccc(-c3nnn(CC(C)=O)n3)cc2)cc1
-0.9%,COc1ccc(NC2c3ccccc3C(=O)N2c2cccnc2)cc1Cl (stereo unspecified)
-15.5%,CCc1cccc(NC(=O)C2CCN(S(=O)(=O)c3cccs3)CC2)c1
-18.5%,COc1ccc(Cn2c3nc4ccccc4nc3c3c(=O)n(Cc4ccco4)c(C)nc32)cc1
-23.0%,CC1CN(C(=O)c2cc3cc(Cl)cc(Cl)c3oc2=O)CC(C)O1 (stereo unspecified)
-4.6%,CCCCNC(=S)NC(=O)c1ccccc1Br
-21.8%,CCOC(=O)C1=C(N)Oc2ccc(Br)cc2[C@@H]1[C@@H](C#N)C(=O)OCC
-15.3%,COc1ccc(C(=O)COC(=O)c2ccc3ccccc3n2)cc1
-0.4%,CCN(CCCNC(=O)C1CCC(=O)N1Cc1ccccc1Cl)c1cccc(C)c1 (stereo unspecified)
-21.6%,Cc1c(Nc2nc3ccccc3nc2NS(=O)(=O)c2cccc(Cl)c2)c(=O)n(-c2ccccc2)n1C
-12.0%,COc1ccc(-c2cccc(-c3cc(=O)oc4cc5c(cc34)OCO5)c2)cc1
-20.0%,O=C1C(=O)N(CCN2CCCCC2)c2ccccc21
-4.8%,COC(=O)c1ccc(CSc2nc3c(cnn3-c3ccc(Cl)cc3)c(=O)[nH]2)o1
-14.6%,COC(=O)NCC(C)OC(=O)Nc1cccc(Cl)c1 (stereo unspecified)
?,CCOC(=O)c1c(NC(=O)c2ccccc2Cl)sc2c1CCc1ccccc1-2
-3.9%,CCOC(=O)N1CCN(CC(O)COc2ccccc2C(C)(C)C)CC1 (stereo unspecified)
-23.4%,Cn1c(=S)[nH]c2[nH]c(=O)cnc2c1=O
-17.8%,Cc1ccc(S(=O)(=O)N2CCOCC2)cc1C(=O)N1C(=O)c2cccc(N)c2C1=O
28.2µM*,CC(C)(C)c1ccc(-c2nnc3sc(-c4ccccn4)nn23)cc1
0.8%,CC(NC(=O)CCl)c1ccc(Cl)c(Cl)c1 (stereo unspecified)
15.8µM*,O=C(CSc1nc2ccccc2c(=O)[nH]1)N1CCCCC1
-7.9%,COc1ccc(N2C(=O)CCC2=O)cc1
14.1µM*,O=c1cc(-c2ccc(O)c(-c3c(O)cc(O)c4c(=O)cc(-c5ccc(O)cc5)oc34)c2)oc2cc(O)cc(O)c12
-14.2%,FC(F)(F)c1ccc(CN2C[C@@H]3C(c4ccccc4)C4(c5cccnc5)CC3(C4)[C@H]2c2ccccc2)cc1 (stereo partly specified)
?,COc1ccc2[nH]c(=O)c(CN(C(=O)C3CCCO3)c3cccc(C)c3)cc2c1 (stereo unspecified)
-7.2%,Cc1ccccc1N1C(=O)C2C3C=CC(C2C1=O)N(C)C3=O (stereo unspecified)
-15.7%,Cc1ccc(Cn2cnc3sc4c(c3c2=O)CCC4)c(C)c1
-22.8%,CCCCCCCC(=O)OCC(=O)[C@@]1(O)CC[C@H]2[C@@H]3CCC4=CC(=O)CC[C@]4(C)[C@H]3[C@@H](O)C[C@@]21C
-4.2%,Cc1cc(C(=O)OCC(=O)N2C(C)CCCC2C)c(C)o1 (stereo unspecified)
-17.1%,CCOc1ccccc1CNC(=O)CCCc1cn(C)c2ccccc12
-21.5%,COC(=O)c1cc(=O)c2c([N+](=O)[O-])ccc(OC)c2o1
-6.5%,COc1ccc(Cc2c(O)nc[nH]c2=O)cc1

# Shown as a hit in HPGD inh, of those listed so far:
HPGD inh,SMILES
15.8µM*,Cn1cc(Br)c(C(=O)NC2C3CC4CC(C3)CC2C4)n1 (stereo unspecified)
22.4µM*,COCC(C)NC(=O)c1ccc(N(C)C)cc1 (stereo unspecified)
15.8µM*,CCN(CC)C(=O)c1sc(NC(=O)c2ccc(Br)o2)c(C(=O)OC)c1C
14.1µM*,CCOCCCNC(=S)Nc1ccc(S(N)(=O)=O)cc1
15.8µM*,COc1cc2c(cc1OC)C(c1ccc(-c3cc(Cl)ccc3Cl)o1)=NCC2
25.1µM*,CCOC(=O)c1sc2nc3n(c(=O)c2c1C)CCC(C)CC3 (stereo unspecified)
28.2µM*,CC(C)(C)c1ccc(-c2nnc3sc(-c4ccccn4)nn23)cc1
15.8µM*,O=C(CSc1nc2ccccc2c(=O)[nH]1)N1CCCCC1
14.1µM*,O=c1cc(-c2ccc(O)c(-c3c(O)cc(O)c4c(=O)cc(-c5ccc(O)cc5)oc34)c2)oc2cc(O)cc(O)c12

# Later entries:
HPGD inh,SMILES
-11.6%,CCCCOc1ccc(/C(O)=C2/C(=O)C(=O)N(CCCOC)C2c2ccncc2)cc1 (stereo unspecified)
-18.1%,CCOC(=O)c1ccc(N2C(=O)c3n[nH]c(C)c3C2c2ccc(OC)cc2)cc1 (stereo unspecified)
-10.1%,COc1cc(C(C(=O)NC(C)(C)C)N(Cc2ccc3c(c2)OCO3)C(=O)c2cnccn2)cc(OC)c1OC (stereo unspecified)
?,COc1ccc(-c2cc(-c3cc(OC)ccc3O)[nH]n2)cc1
-18.2%,O=C(c1ccco1)c1cn[nH]c1-c1ccc(Cl)cc1O
?,CN1C(=O)c2ccccc2N(C)C1c1cccs1 (stereo unspecified)
-18.2%,COc1ccccc1-c1cc2nc(C)c(CCC(=O)NC(C)CCc3ccco3)c(C)n2n1 (stereo unspecified)
?,CCCOc1ccc(-c2nc(C#N)c(N3CCC(C(N)=O)CC3)o2)cc1
-5.3%,O=S(=O)(c1ccccc1)N1CN2CN(C1)CN(S(=O)(=O)c1ccccc1)C2
?,CCc1c(C(=O)N2CCOCC2)csc1C
?,Cc1nn(-c2ccccc2Cl)c(Cl)c1/C=N/Nc1nc2ccccc2s1
?,Clc1ccc(C2=CC(c3ccco3)n3ncnc3N2)cc1 (stereo unspecified)
-15.7%,CC1=CC(=C2C(=O)c3ccccc3C2=O)C=C(C)N1Cc1ccco1
?,C=CCNC(=O)/C(C#N)=C/c1cn(-c2ccccc2)nc1-c1cccs1
14.1µM*,CCC(=O)Nc1ccc(C(=O)c2ccccc2)cc1
0.2%,Cc1cccc(C)c1NC(=O)NN(C(=O)c1ccccc1)C(C)(C)C
?,Cc1cc(/C=C2\Cc3ccccc3C2=O)c(C)n1-c1ccccc1

# Looked up by compound from the list above:
HPGD inh,SMILES
-9.5%,C1=CC2C3C=CC(C3)C2C1 (stereo unspecified)
-9.2%,c1cnc(N2CCN(Cc3c[nH]c4ccccc34)CC2)nc1
-8.2%,COC(=O)[C@H](C)NC(=O)Nc1cccc(C(F)(F)F)c1
-17.1%,CCOc1ccccc1CNC(=O)CCCc1cn(C)c2ccccc12
